From PubChem
SARS PLpro yeast: qHTS of Yeast-based Assay for SARS-CoV PLP; S. cerevisiae expressing SARS-CoV PLpro, growth rescue; control for the full effect not named in the record; Potency, µM (highest dose often 32.9 µM), inactives show at the top dose activity, positive = growth rescue; actives 0.19% (n = 330,000); AID 485353, 2010; further: 0% is about no effect; nearly all actives have a fitted effect of over 55% in size; growth read by luminescence after 48 h
Cruzain Triton: qHTS Assay for Promiscuous and Specific Inhibitors of Cruzain (with detergent) | actives 0.43% (n = 200,000) | purified cruzain, Z-FR-AMC fluorescence, 0.01% Triton | Potency, µM, for inactives: max response, negative = inhibition, hits mostly inhibitors; active means well fitted curve in the direction sought with a large enough effect; inconclusive means small, poorly fitted or top-dose-only effect, or another doubt; inactive means no such curve, though single readings can be large; an effect the other way counts as inactive or inconclusive;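 further: plate controls were neutral wells for no effect and buffer without enzyme for full effect; nearly all actives have a fitted effect of over 40% in size; top concentration of the series not given in the record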
Target sequence (P25779 123-467 limits assumed): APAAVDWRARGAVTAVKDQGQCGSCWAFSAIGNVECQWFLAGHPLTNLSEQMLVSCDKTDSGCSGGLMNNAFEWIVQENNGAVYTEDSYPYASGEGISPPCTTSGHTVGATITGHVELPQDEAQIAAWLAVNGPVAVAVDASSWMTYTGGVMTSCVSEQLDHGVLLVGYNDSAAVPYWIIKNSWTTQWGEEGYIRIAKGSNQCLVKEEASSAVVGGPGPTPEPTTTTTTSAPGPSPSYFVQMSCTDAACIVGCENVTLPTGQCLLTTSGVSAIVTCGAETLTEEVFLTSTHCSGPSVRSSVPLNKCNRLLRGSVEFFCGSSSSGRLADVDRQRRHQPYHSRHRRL
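Steps: dispense cruzain (1.5 nM final) in acetate buffer pH 5.5 with DTT and 0.01% Triton X-100; pin-transfer compounds; incubate 15 min RT; add Z-FR-AMC (2 uM final); read fluorescence every 30 s, using the 60 s intensity change.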
RE007 growth inh: qHTS Assay for Inhibitors of the HIV-1 protein Vpr | Potency, µM (doses to about 92.2 µM), for the others: at the highest dose activity change, negative = less growth | actives 0.21% (n = 360,000) | S. pombe RE007 Vpr strain, BacTiter-Glo ATP luminescence, 24 h; control for the full effect not named in the record | AID 651644, 2012; active = well fitted falling curve with a large enough effect; inconclusive = small, poorly fitted or top-dose-only effect; inactive = no such curve, though single readings can be large or run the other way;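 further: on the % scale 0 is the no-effect control and ±100 the full control effect; nearly all actives have a fitted effect of over 50% in size; the assay follows cell death caused by Vpr and the record does not say whether a fall means rescue or toxicity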
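Fission yeast strain RE007, carrying one chromosomally integrated HIV-1 vpr copy, was seeded at OD 0.01 in PMG+AL medium with 23 nL pinned compound. After 24 h at 30 °C and 99% humidity, viability was read by BacTiter-Glo luminescence.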
Cruzain noTriton: qHTS Assay for Promiscuous and Specific Inhibitors of Cruzain (without detergent). actives 2.3% (n = 200,000). purified cruzain, Z-FR-AMC fluorescence, no detergent. Potency, µM, for the others: max response, negative = inhibition, usual class: inhibitors; active means well fitted curve in the direction sought with a large enough effect; inconclusive means small, poorly fitted or top-dose-only effect, or another doubt; inactive means no such curve, though single readings can be large; an effect the other way counts as inactive or inconclusive;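 further: plate controls were enzyme without inhibitor for no effect and buffer without enzyme for full effect; nearly all actives have a fitted effect of over 40% in size; top concentration of the series not given in the record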
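Detergent-free condition (0.00005% Triton X-100) in acetate buffer pH 5.5 with DTT. 1.5 nM enzyme and compound were pre-mixed 15 min, then 2 uM Z-FR-AMC substrate added; reaction progress from fluorescence change between first and third reads (60 s).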
Marburg entry inh: qHTS for inhibitors of binding or entry into cells for Marburg Virus. Marburg virus pseudotyped entry inhibition, cell reporter; control for the full effect not named in the record; about a third of the inactives were read at about 46 µM. Potency, µM (doses to about 37.8 µM), without a hit: at the top dose activity change, negative = inhibition, most hits filed as inhibitors. actives 1.8% (n = 300,000); active = well fitted inhibition curve with a large enough effect; inconclusive = small, poorly fitted or top-dose-only effect, or effect the other way; inactive = flat fitted curve, though single readings scatter; tested in HEK293 cells; about a fifth of its hits are not listed in these tables; further: on the % scale 0 is the no-effect control and ±100 the full control effect; luciferase read-out
LASV entry inh: qHTS for Inhibitors of binding or entry into cells for Lassa Virus; Potency, µM (top dose mostly 37.9 µM), without a hit: at the top dose activity change, negative = inhibition, actives largely listed as inhibitors; Lassa virus pseudotype entry inhibition, cell reporter; control for the full effect not named in the record; actives 1.2% (n = 300,000); active means well fitted inhibition curve with a large enough effect; inconclusive means small, poorly fitted or top-dose-only effect, or effect the other way; inactive means flat fitted curve, though single readings scatter; tested in HEK293 cells; further: on the % scale 0 is the no-effect control and ±100 the full control effect; nearly all actives have a fitted effect of over 50% in size; luciferase read-out
2A StopGo: High Throughput Screening for Foot and Mouth Disease Virus Antivirals; human cells with a luciferase reporter of 2A StopGo recoding; control for the full effect not named in the record; Potency, µM (top dose mostly 57.9 µM), inactives show at the highest dose signal change, negative = less light; actives 1.2% (n = 410,000); active = well fitted falling curve with a large enough effect; inconclusive = small, poorly fitted or top-dose-only effect; inactive = no such curve, though single readings can be large or run the other way; tested in HEK293T cells; further: on the % scale 0 is the no-effect control and ±100 the full control effect; nearly all actives have a fitted effect of over 45% in size; luciferase light after 4 h
NS1 function inh: qHTS Assay for Inhibitors of Influenza NS1 Protein Function | actives 0.4% (n = 270,000) | S. cerevisiae slowed by influenza A NS1, growth recovery by OD600 | Potency, µM (doses to about 46.1 µM), inactives show at the top dose activity, positive = more growth; further: actives are rising curves; nearly all actives have a fitted effect of over 50% in size
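Recovery from NS1-induced slow growth read by OD600 in budding yeast switched to galactose assay medium (pH 6.0, -URA) at 1:100 dilution. Compound 23 nl per well; the matching strain lacking NS1 serves as control.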
* = called active by the depositor; ? = inconclusive; / = not tested or not shown; & = joins results of further samples; [ ] = remark or other dose. Unless noted, the call rests on the fitted dose curve; in most records, active means well fitted rising curve with a large enough effect; inconclusive means small, poorly fitted or top-dose-only effect; inactive means no such curve, though single readings can be large or run the other way. Potency means the concentration at half of the fitted maximal effect.

structure	SARS PLpro yeast	Cruzain Triton	RE007 growth inh	Cruzain noTriton	Marburg entry inh	LASV entry inh	2A StopGo	NS1 function inh
O=C(Nc1nnc(Cc2ccccc2)s1)c1ccccc1	19%	/	-27%	/	?	5%[46.1 µM]	20%	12%
O=C(NCC(=O)N(CC1CCCO1)C(C(=O)NC1CCCCC1)c1ccccc1)c1ccco1 (centres undefined)	13%	/	0%	/	/	/	-2%	-2%
CCN1CCN(Cc2ccc(OC)c(OCc3ccccc3)c2)CC1	/	7.3%	-15%	0%	?	13%	-21%	0%
CCN(CCCNC(=O)C1CCN(S(=O)(=O)c2cccc3nonc23)CC1)Cc1ccccc1	0%	3.5%	-8%	2%	-13%&-13%	21%	4%	-2%
CC(=O)c1ccc(N2CCN(C(=O)c3ccc(-c4ccccc4)cc3)CC2)cc1	3%	/	-8%	/	-22%[46.1 µM]	?	-8%	15%
CCN(CC(=O)Nc1ccc2c(c1)OCCO2)C(=O)c1ccc(S(=O)(=O)N(C)C)cc1	9%	/	-19%	/	3%	?	-3%	/
CCc1cccc2c(C(=O)C(NCCCOC)c3ccccc3)c[nH]c12 (centres undefined)	-11%	/	-3%	/	13µM*	?	-9%	-24%
CCOC(=O)C1=C(CSc2nc(-c3ccccc3)ccc2C#N)OC(N)=C(C#N)C1c1ccc(OC)cc1 (centres undefined)	0%	-3.6%	-9%	16µM*	?	-26%	17%	?
O=C(/C=C\NCC(=O)c1ccccc1)c1ccccc1	-6%	-8.5%	-11%	-18%	20%	0%	78%[activator]	-12%
O=C(Nc1ccc(Br)c(C(F)(F)F)c1)c1ccc(C(F)(F)F)cc1	-19%	/	?	/	?	?	-22%	-76%
COc1ccc(CCNC(=O)CCNC(=O)c2ccco2)cc1	0%	/	10%	/	?	0%[46.1 µM]	-1%	8%
O=C(N/N=C1/CC2C=CCC12)c1ccc(Br)o1 (centres undefined)	-8%	-1.4%	1%	1%	?	?	-4%	13%
O=C1COc2ccc(S(=O)(=O)Nc3ccc(OC(F)(F)F)cc3)cc2N1	-2%	/	-16%	/	/	/	10%	18%
CS(=O)(=O)N1CCC(C(=O)NCc2ccc3c(c2)OCO3)CC1	1%	/	-2%	/	29%[46.1 µM]	-2%	6%	-5%
Cc1ccc2nc(-c3ccccc3Cl)cc(C(=O)Nc3cc(C)on3)c2c1	-5%	-3.1%	-10%	-8%	0%	-13%	?	12%
Cc1c(C(=O)Nc2cccc(C#N)c2)sc2nc3n(c(=O)c12)CCCCC3	/	-4.2%	/	-9%	/	23%[46.1 µM]	-13%	/
COc1ccc(CNc2ncc(-c3cccc([N+](=O)[O-])c3)n2C)c(OC)c1OC	-3%	/	-19%	/	/	/	-22%	-15%
Cc1ccc(CN2CCCn3nc(C(=O)NCCc4ccccc4C)cc3C2=O)cc1	/	0.7%	/	-7%	/	8%[46.1 µM]	1%	/
CCOc1cc2c(cc1/C=C(/C#N)c1ccc(C(=O)O)cc1)OCO2	-1%	/	-13%	/	19%[46.1 µM]	4%[46.1 µM]	3%	/
CCCNC(=O)Cn1cc(S(=O)(=O)N2CCCC2)c(S(=O)(=O)N2CCCC2)c1	-1%	/	10%	/	14%[46.1 µM]	10%[46.1 µM]	-6%	8%
CC1(C)C(C(=O)NCc2ccco2)C1(C)C	9%	0.3%	-14%	0%	0%[46.1 µM]	6%	-11%	?
O=C(CNc1ccc(C(F)(F)F)cc1[N+](=O)[O-])OCC(=O)c1ccccc1	-5%	-5.0%	?	-1%	10%	18%	-18%	6%
Cc1cscc1NC(=O)/C=C/C(=O)O	1%	/	0%	/	1%[14.2 µM]	21%	-1%	1%
O=C1C=CC(=O)N1c1ccccn1	/	/	-14%	/	-2%[46.1 µM]	5%[46.1 µM]	-8%	/
COc1ccc(CNC(=O)c2ccc3c(c2)N(C)C(=O)C2CCCCN32)cc1OC (centres undefined)	/	-3.7%	/	-6%	/	-1%[46.1 µM]	-13%	/

Structures shown so far containing a halogen:
structure	SARS PLpro yeast	Cruzain Triton	RE007 growth inh	Cruzain noTriton	Marburg entry inh	LASV entry inh	2A StopGo	NS1 function inh
O=C(Nc1ccc(Br)c(C(F)(F)F)c1)c1ccc(C(F)(F)F)cc1	-19%	/	?	/	?	?	-22%	-76%
O=C(N/N=C1/CC2C=CCC12)c1ccc(Br)o1 (centres undefined)	-8%	-1.4%	1%	1%	?	?	-4%	13%
O=C1COc2ccc(S(=O)(=O)Nc3ccc(OC(F)(F)F)cc3)cc2N1	-2%	/	-16%	/	/	/	10%	18%
Cc1ccc2nc(-c3ccccc3Cl)cc(C(=O)Nc3cc(C)on3)c2c1	-5%	-3.1%	-10%	-8%	0%	-13%	?	12%
O=C(CNc1ccc(C(F)(F)F)cc1[N+](=O)[O-])OCC(=O)c1ccccc1	-5%	-5.0%	?	-1%	10%	18%	-18%	6%

Next section
structure	SARS PLpro yeast	Cruzain Triton	RE007 growth inh	Cruzain noTriton	Marburg entry inh	LASV entry inh	2A StopGo	NS1 function inh
Cc1ccc(Cn2nnc3c(=O)n(CC(=O)NCC4CCCO4)cnc32)cc1 (centres undefined)	2%	5.3%	-7%	-13%	0%	-5%	-8%	-14%
CCCN1CCN(CCCNC(=O)Cn2nc(-c3ccccc3)ccc2=O)CC1	-3%	4.7%	4%	0%	-15%	-2%	/	-3%
COc1ccc(OCCSc2nc3ccccc3c(=O)[nH]2)cc1	6%	-1.7%	8%	0%	14%	0%	15%	0%
CCOc1ccccc1Nc1cc2n(c(=O)n1)CCc1cc(OC)c(OC)cc1-2	1%	/	1%	/	?	?	-15%	0%
CCOC(=O)c1ccc2ncc(C(=O)OCC)c(NCCCN3CCOCC3)c2c1	1%	-3.9%	-21%	-11%	1%	-6%	/	-15%
CSc1nc(N)c2c3c(sc2n1)COC(C(C)C)C3 (centres undefined)	4%	-0.3%	-3%	3%	12%	2%	-20%	-2%
CCOC(=O)C1(Cc2ccc(OC)cc2)CCN(C(=O)c2cncs2)CC1	0%	/	1%	/	7%[46.1 µM]	16%	20%	-5%
CCN(CC)CCNC(=O)c1cn(-c2ccccc2)nc1-c1cccs1	-10%	0.8%	-21%	0%	?	-7%	-17%	0%
CCOC(=O)C1=C(C)NC(C)=C(C(=O)OCC)C1C(=O)OCC(=O)NCc1ccco1	-5%	/	35%	/	?	?	-2%	/
COCCCNC(=O)C(CC(N)=O)NC(=O)OCc1ccccc1 (centres undefined)	-1%	/	-2%	/	11%[46.1 µM]	-6%	8%	-1%
COc1ccc(Cl)cc1S(=O)(=O)N1CCN(CC(=O)C(C)(C)C)CC1	-2%	-1.4%	0%	-4%	?	-1%	-13%	-7%
CCC1Sc2ccc(S(=O)(=O)Nc3cc(OC)cc(OC)c3)cc2NC1=O (centres undefined)	0%	/	24%	/	/	/	-8%	0%
CCC(=O)Nc1ccc(NC(=O)CSc2nnnn2Cc2ccccc2)cc1C	-5%	/	24%	/	1%[46.1 µM]	/	-6%	20%
COc1cc(NC(=O)COC(C)=O)c(C)cc1[N+](=O)[O-]	10%	-4.8%	6%	1%	1%	0%	-2%	-4%
COc1cccc(-c2nnc3n2N=C(c2cccc(Br)c2)CS3)c1	19%	3.5%	0%	7.9µM*	5%	8%	-12%	0%
COc1ccc(C(=O)NCC(=O)NC2=NCCS2)cc1	13%	7.5%	5%	0%	/	/	-11%	-7%
Cc1ccc(NC(=O)C2CCCN(c3ncnc4onc(C)c34)C2)cc1Cl (centres undefined)	/	7.0%	/	3%	/	3%[46.1 µM]	20µM*	/
O=c1cc2[nH]c3ccccc3c(=O)n2nc1-c1ccccc1	-2%	-2.7%	2%	-7%	?	-2%	17%	-5%
Cc1ccc(C(=O)NC2CCN(S(=O)(=O)c3ccccc3F)CC2)cc1	-4%	/	33%	/	28%	?	-29%	10%
CC(CNS(=O)(=O)c1ccc2c(c1)CC(=O)N2C)c1ccccc1 (centres undefined)	24%	/	-9%	/	24%&24%[46.1 µM]	10%&13%[46.1 µM]	-7%&19%	21%
N=c1c(S(=O)(=O)c2ccc(Cl)cc2)cc2c(=O)n3ccccc3nc2n1CCN1CCOCC1	-4%	-6.7%	18%	?	-20%	19%	-11%	-4%
CCC(C)NC(=O)Nc1ccccc1C (centres undefined)	10%	1.7%	13%	-4%	6%	2%	-18%	10%
O=C(NCCCN1CCOCC1)c1cc(Cl)ccc1[N+](=O)[O-]	3%	1.2%	-18%	10%	?	?	-14%	-1%

Reformatted with values under each structure: part of the list above
Values run as follows: SARS PLpro yeast	Cruzain Triton	RE007 growth inh	Cruzain noTriton	Marburg entry inh	LASV entry inh	2A StopGo	NS1 function inh
- Cc1ccc(Cn2nnc3c(=O)n(CC(=O)NCC4CCCO4)cnc32)cc1 (centres undefined)
→ 2%	5.3%	-7%	-13%	0%	-5%	-8%	-14%
- Cc1ccc(CN2CCCn3nc(C(=O)NCCc4ccccc4C)cc3C2=O)cc1
→ /	0.7%	/	-7%	/	8%[46.1 µM]	1%	/

Not a hit list; 4.7% or so of the library scored in one or more.
